ALR H2O2 inh: human ALR oxidase inhibition via reduced H2O2. P55789. purified ALR, DTT oxidation, H2O2 HRP-luminol luminescence. inhibition, % (no concentration beside the values). 3.8% of 290,000 active. AID 485317;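 active = mean and each replicate at 75% or more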;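 note: stock transfer was 7.5 nL into about 7.5 µL; 0% = neutral wells and 100% = wells with inactivated enzyme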
rRNA inh HTS: inhibits bacterial ribosomal RNA function over humanized ribosomes; E. coli WT GFP vs humanized-ribosome RFP mutants, fluorescence, 24 h; active compounds read low; DMSO median 0, no signal -100; GFP signal change (wild-type ribosome), % (concentration not given with the values); 1.6% of 350,000 active;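 active = significant combined selectivity score with lowered wild-type GFP, culture density cut under 30%, mutant RFP and density less affected; inactive = any of these conditions unmet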; note: one replicate is shown; some compounds called inactive have numbers as strong as hits
FGF22 binding: shifts melting point of recombinant human FGF22. recombinant FGF22 thermal shift, SYPRO orange fluorescence; percent of sucrose octasulfate shift, DMSO zero. calls only at 9.99 µM. Q9HCT0. 1.5% of 340,000 active;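 active = melting point raised past a set limit in the mean and every replicate; three in four hits are not shown here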
Target sequence (Q9HCT0 whole entry, looked up): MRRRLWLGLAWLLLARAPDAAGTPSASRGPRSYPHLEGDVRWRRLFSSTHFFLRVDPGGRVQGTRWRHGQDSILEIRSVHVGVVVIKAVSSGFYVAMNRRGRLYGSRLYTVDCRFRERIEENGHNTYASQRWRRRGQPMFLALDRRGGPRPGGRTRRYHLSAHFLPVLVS
Beta2AR agonist: human beta-2 adrenergic receptor agonism by FAP; P07550; Am2.2-beta2AR cells, FAP receptor internalization, flow cytometry; reference of the scale not given here; response, % (test concentration not listed); 0.43% of 340,000 active; AID 504454;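 active = response above a set limit, near 3 SD of response in nonfluorescent compounds, cut at about 42% in these data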;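 note: stock transfer was 100 nL into about 11 µL; a reference agonist was the positive control; negative values mostly stem from fluorescent compounds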
Target sequence (P07550 whole entry, looked up): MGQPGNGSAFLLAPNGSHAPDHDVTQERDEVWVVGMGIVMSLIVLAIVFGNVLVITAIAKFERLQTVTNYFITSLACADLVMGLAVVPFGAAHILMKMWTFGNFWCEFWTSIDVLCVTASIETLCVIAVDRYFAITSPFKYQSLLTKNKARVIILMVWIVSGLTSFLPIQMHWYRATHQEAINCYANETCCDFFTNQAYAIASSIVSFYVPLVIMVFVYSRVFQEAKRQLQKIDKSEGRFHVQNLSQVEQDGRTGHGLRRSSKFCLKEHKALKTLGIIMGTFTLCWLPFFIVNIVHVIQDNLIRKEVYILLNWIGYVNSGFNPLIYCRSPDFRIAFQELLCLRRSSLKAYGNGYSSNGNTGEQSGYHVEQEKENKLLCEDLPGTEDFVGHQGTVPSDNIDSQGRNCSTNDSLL
E coli growth: E. coli growth inhibition; Escherichia coli growth, OD600, 23 h; active compounds read low; OD600 absorbance (test concentration not listed); 0.21% of 330,000 active;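 active = OD600 absorbance below the run mean of sample wells minus 3.6 SD, in any replicate, cut at about 0.56 in these data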;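 note: stock transfer was 300 nL into about 60 µL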
UCH37 inh: blocks the human deubiquitinase UCH37; Q9Y5K5; purified proteasome/UCH37, Ub-AMC cleavage fluorescence; inhibition, % (test concentration not listed); 0.33% of 330,000 active; AID 588478;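 active = mean of two replicates above 20%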;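 note: 0% = compound-free wells with enzyme and 100% = wells lacking proteasome; stock transfer was 100 nL into about 20 µL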
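Assay system: Proteasome-bound UCH37. Buffer or medium: pH 7.4 Tris-HCl (50 mM) with ovalbumin, ATP-MgCl2, DTT. Incubation: 30 min preincubation with enzyme, 25 min cleavage at room temperature. Measured by: fluorescence, ex 355 nm, em 460 nm. Read-out basis: percent inhibition. Control set: wells without proteasome as full block, compound-free enzyme plus substrate as uninhibited.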
HNF4A DNA FP: change in binding of human HNF4 alpha to DNA; P41235; HNF4a-FITC DNA binding, fluorescence polarization, 1 h; activity change, % at 10 µM; 0.3% of 360,000 active; AID 1224865; in the data active = activity change above about 30%, passing the limit was not always enough;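 note: controls were the assay level and a saturating level of protein; the project sought stronger binding though the title names inhibitors; some compounds called inactive have numbers as strong as hits; positive values seem to mean higher polarization but the record does not say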
Target sequence (P41235 whole entry, looked up): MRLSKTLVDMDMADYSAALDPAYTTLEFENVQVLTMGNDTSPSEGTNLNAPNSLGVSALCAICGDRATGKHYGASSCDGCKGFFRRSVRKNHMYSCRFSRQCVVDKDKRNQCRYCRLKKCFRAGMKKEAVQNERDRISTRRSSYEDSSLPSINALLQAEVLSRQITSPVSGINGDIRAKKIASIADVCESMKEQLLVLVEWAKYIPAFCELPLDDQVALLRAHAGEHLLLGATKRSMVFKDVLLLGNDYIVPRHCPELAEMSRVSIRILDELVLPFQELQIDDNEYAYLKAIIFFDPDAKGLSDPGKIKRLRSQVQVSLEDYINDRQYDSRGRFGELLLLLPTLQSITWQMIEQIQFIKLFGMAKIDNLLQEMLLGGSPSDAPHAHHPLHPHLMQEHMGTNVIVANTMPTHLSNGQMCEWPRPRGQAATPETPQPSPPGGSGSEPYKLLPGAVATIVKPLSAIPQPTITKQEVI
rRNA inh HTS OD600: also measured in rRNA inh HTS; calls as there; OD600 change, %; measured here: OD600 growth;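 optical density of the mix in the first replicate; 0 = DMSO median and -100 = no signal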
rRNA inh HTS RFP: second read-out of rRNA inh HTS, no call of its own (marks repeat the call); RFP signal change, %; measured here: RFP humanized mutant strains;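 first replicate; 0 = DMSO median and -100 = no signal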
* hit, by the source's call; i = inactive; . = not tested or not shown. Not all compounds are listed. The share of hits here may be higher or lower than overall.

SMILES	ALR H2O2 inh	rRNA inh HTS	rRNA inh HTS OD600	rRNA inh HTS RFP	FGF22 binding	Beta2AR agonist	E coli growth	UCH37 inh	HNF4A DNA FP
O=C(NCCCN1CCCC1=O)c1cc(NS(=O)(=O)c2ccc(F)cc2)cc(NS(=O)(=O)c2ccc(F)cc2)c1	.	.	.	.	.	4.2	0.668	3.8	3.6
O=C(c1cc2ccccc2cc1O)N1CCN(c2ccccc2O)CC1	18.4	-4.8	-4.5	0.1	i	1.1	0.625	-5.0	4.1
CC1(C(=O)N2CC3(CC(c4cccc([N+](=O)[O-])c4)=NO3)C[C@H]2C(=O)NCC(N)=O)CC1 (stereo partly specified)	-4.6	4.9	-2.1	-5.8	i	6.7	.	3.1	-1.7
c1ccc(COc2ccc(-c3cc4nc(NCCN5CCOCC5)ccn4n3)cc2)cc1	.	-62.5	-70.9	-9.1	i	.	.	.	8.7
COc1cc(C2CC(=O)c3c([nH]c(C(=O)OCCOC(C)C)c3C)C2)cc(OC)c1OC (stereo unspecified)	-10.0	-8.7	-13.6	-1.8	i	17.3	0.763	1.9	7.3
CCC(C)(C)n1c(=O)[nH]c2c(c1=O)CCC2	-4.5	.	.	.	.	-2.4	0.739	1.8	-2.4
OC(COC(c1ccc(Cl)cc1)c1ccc(Cl)cc1)CN1CCN(c2ccccn2)CC1 (stereo unspecified)	1.2	-56.8	-65.8	-13.9	i	-6.0	0.664	3.1	0.0
CN(C)c1cccc(CNC(=O)c2csc([C@@H]3O[C@H](CO)[C@H](O)[C@H](O)[C@H]3O)n2)c1	.	18.7	22.4	-0.3	i	.	.	.	5.4
O=C(NNC(=O)c1ccccc1Br)c1ccncc1	0.1	-14.0	-10.3	1.4	i	1.9	0.715	2.1	-2.5
Cc1ccc(S(=O)(=O)NCC(=O)N(CC2CCCO2)C(C(=O)NC2CCCCC2)C(C)C)cc1 (stereo unspecified)	.	4.3	7.3	-1.2	i	-4.8	0.73	-2.0	-1.4
CCN(CC)CCNC(=O)NC(=O)c1ccc(Cl)cc1	-0.7	30.4	7.1	2.6	i	9.6	0.689	-2.1	2.6
CCCc1c(O)nc(SCCN(CCC)CCC)[nH]c1=O	16.9	.	.	.	.	9.5	0.707	3.5	13.0
CC1=NN(C(=O)c2cc(C)nn2C)C(O)(C(F)(F)F)C1 (stereo unspecified)	2.9	4.4	-4.3	-0.9	i	5.0	0.688	3.9	1.6
COc1cccc(N2CCN(S(=O)(=O)c3ccc4c(c3)N(C(C)=O)CCO4)CC2)c1	16.6	-11.8	-5.3	3.5	i	3.5	0.652	1.3	4.5
CCN(C)C1CN(Cc2cn(CCCOC)nn2)S(=O)(=O)C1 (stereo unspecified)	.	21.9	3.5	2.8	i	.	.	.	-0.2
CC(C)C(NC(=O)c1ccco1)C(=O)NCC(c1ccco1)N1CCCCC1 (stereo unspecified)	-5.0	.	.	.	.	2.3	0.712	-0.9	-2.8
O=C1CN(C(=O)CSc2nc3ccccc3c(=O)n2Cc2ccc(F)cc2)c2ccccc2N1	0.8	-6.9	-4.3	2.9	i	-2.9	0.743	4.9	-0.2
Cc1cc(C(C)(C)C)nc2[nH]n(-c3ccccc3)c(=O)c12	96.3*	.	.	.	.	9.4	0.693	3.8	2.0
COc1ccc(C(C(=O)NCC2CCCO2)N(Cc2ccco2)C(=O)c2snc(C(N)=O)c2N)cc1OC (stereo unspecified)	.	-0.4	2.9	-3.3	.	3.7	.	.	-1.0
O=C(O)C1C2C=CC(C2)C1C(=O)NCc1ccc(Cl)cc1Cl (stereo unspecified)	-22.0	-26.3	-22.9	-1.1	i	-6.2	0.653	1.1	-5.2
FC(F)(F)c1ccc(Oc2ccc(Cl)cc2Br)nc1	-9.1	2.0	5.3	-2.9	i	7.6	0.684	1.7	-1.9
CCOc1ccc(OCC)c(NC(=O)CN(c2ccc(OC)cc2)S(=O)(=O)c2c(C)noc2C)c1	-4.2	-0.8	3.5	-0.9	i	9.8	0.714	5.0	2.7
Cc1cc(C)cc(N/C(N)=N/c2nc(C)cc(C)n2)c1	-8.7	-4.0	-13.0	-12.5	i	7.1	0.687	-2.5	4.9
Cn1cnc(S(=O)(=O)NCc2cccs2)c1	-10.3	.	.	.	.	-1.1	0.743	-0.4	0.6
Cc1nc2nc(SCC(=O)NCCCN3CCCCCC3)nn2c(C)c1Cc1ccccc1	-1.3	2.4	6.9	22.4	i	-4.6	0.685	2.1	68.3*
N#CCCN(C(=O)COC(=O)CNC(=O)C12CC3CC(CC(C3)C1)C2)c1ccccc1	1.1	5.7	10.1	2.1	i	-5.8	0.706	-0.8	1.6
CCn1c(SCC(=O)Nc2nc(C)cs2)nnc1C(NC(=O)c1ccccc1Cl)C(C)C (stereo unspecified)	-0.5	.	.	.	.	0.9	0.816	1.4	3.1
CCOC(=O)[C@@H]1[C@H]2COc3ccccc3[C@@H]2N2C(=O)N(c3ccc(Br)cc3)C(=O)[C@@]12C	.	-3.8	-9.8	-2.4	i	.	.	.	-1.6
Cc1ccc(OC(=O)CCC(=O)OCCCC(F)(F)C(F)(F)F)cc1	.	.	.	.	.	1.8	0.733	-1.6	1.5
CNc1nc(SCC(=O)Nc2ccc(Cl)c(Cl)c2)nc(N2CCOCC2)n1	1.5	-0.6	0.5	-0.6	i	-6.7	0.741	-0.7	1.1
COc1ccccc1N(CC(=O)Nc1cccnc1)S(C)(=O)=O	-2.0	.	.	.	.	-3.3	0.669	2.2	-2.5
CCN1C(=O)N[C@@H](c2cccs2)C(C(C)=O)=C1C	0.1	6.4	3.3	-1.1	i	1.4	.	3.9	-7.5
CC1CN(C(=O)c2ccccc2NS(=O)(=O)c2cccc([N+](=O)[O-])c2)CC(C)O1 (stereo unspecified)	2.3	3.1	8.9	-2.3	i	-2.6	0.69	1.4	-1.2
Cc1cccc(CC(=O)NCC(=O)NCc2cc(=O)n(C)c(=O)n2C)c1	-4.1	7.8	8.6	3.8	i	-8.2	0.686	1.6	2.0
Cc1ccc[n+](CC(=O)Nc2cc(C(F)(F)F)ccc2N2CCOCC2)c1	4.3	15.0	17.6	0.4	i	5.7	0.689	4.1	4.8
CCCNS(=O)(=O)c1cc(Br)cc2c1N(C(=O)CC)CC2	.	.	.	.	.	13.8	0.743	1.4	-1.6
CCCc1cc(=O)oc2cc(OCC(=O)NCC(O)c3ccccc3)ccc12 (stereo unspecified)	-10.5	-0.6	-0.2	-1.1	i	2.5	0.728	-4.1	-1.0
O=C(c1cccc(N2C(=O)C3C4C=CC(C4)C3C2=O)c1)N1CCN(c2ccc(F)cc2)CC1 (stereo unspecified)	24.0	-8.7	-5.4	-5.2	i	0.1	0.685	4.1	-1.1
NNc1nc(-c2ccccc2Cl)nc2sc3c(c12)CCCC3	1.1	.	.	.	.	14.4	0.687	3.0	-1.5
O=C(NCCN1CCOCC1)c1ccc(Cl)cc1[N+](=O)[O-]	-3.5	.	.	.	.	6.6	0.655	-2.1	9.6
O=C(Nc1nccs1)c1cccc(S(=O)(=O)N2CCCCC2)c1	-7.5	.	.	.	.	-11.2	0.734	2.0	-0.7
Cn1c(=O)n(C)c2cc(NC(=O)COc3ccccc3)ccc21	-2.1	-3.0	-2.6	1.6	i	-2.9	0.656	1.0	-1.0
Cn1cc(CN2CCCCC2c2ccccn2)c(-c2ccc3c(c2)OCCO3)n1 (stereo unspecified)	-12.6	12.6	6.6	-1.4	i	-9.3	0.723	5.1	-0.9
CCO[C@@H]1OC(C(=O)NCc2ccccc2)=C[C@H](C2CC2)[C@H]1CCCO	.	8.6	0.7	2.8	i	1.7	.	1.0	0.1
O=C1CC(c2ccco2)CC(O)=C1C=Nc1cc(Cl)ccc1Cl (stereo unspecified)	-0.8	.	.	.	.	0.9	0.693	-4.2	-8.2
CC1=CS/C(=C(/C#N)C(=O)NCc2ccco2)N1c1ccccc1	-9.0	4.3	5.8	8.9	i	-8.5	0.772	-41.4	7.8
O=C(NCc1cc(Cl)cc(Cl)c1)c1csc(COCCO)n1	.	0.1	-26.6	-8.7	i	.	.	.	1.8
COc1ccc(-c2cc3nc(NCCCN(C)C)n(C)c(=O)c3s2)c(C)c1	.	-1.3	-4.9	8.2	i	.	.	.	5.4
CCc1ccc(-c2nc(CCl)cs2)cc1	20.5	0.2	12.2	0.1	i	5.5	0.686	0.4	3.9
CCOc1ccc(CCNC(=O)C2CC(=O)N(CCc3ccccc3)C2)cc1OCC (stereo unspecified)	-4.0	2.1	9.2	1.8	i	-1.6	0.641	2.7	3.1
COCC(C)n1c(C)cc(C(=O)COc2ccc(N(C)S(=O)(=O)c3ccc(NC(C)=O)cc3)cc2)c1C (stereo unspecified)	.	-9.4	-15.8	0.6	i	-2.6	0.676	3.5	-0.7
CCOC(=O)C1=CN(Cc2ccc(Br)cc2)S(=O)(=O)N(C)C1C (stereo unspecified)	.	-33.3	-44.1	-5.4	i	0.1	0.706	1.1	-0.4
CCOC(=O)c1c(C)[nH]c(C)c1C(=O)CSc1nc(N)cc(N)n1	4.6	.	.	.	.	-6.3	0.715	4.1	-2.4
CCOc1ccc(C(=O)NCC(=O)NCC2CCCCC2)cc1OCC	2.5	-2.5	-4.8	-1.6	i	-4.8	.	.	1.4
CCOc1cc2c(cc1OCC)C(c1ccc(C(=O)O)cc1)NCC2 (stereo unspecified)	-1.1	4.6	14.6	-2.2	i	3.5	0.689	4.5	-4.1
COc1ccc(CCNC(=O)CSc2ccsc2[N+](=O)[O-])c(OC)c1	-12.4	-9.6	-15.7	2.5	i	-1.0	0.723	2.4	3.5
O=C(CN1C(=O)c2ccccc2S1(=O)=O)c1ccc(Cl)cc1Cl	12.0	-1.6	4.3	-1.7	i	2.3	.	.	1.1
COc1ccc(-c2noc(-c3ccccc3C(=O)Nc3cccc(OC)c3)n2)cc1	-4.4	.	.	.	.	5.5	0.776	1.9	1.2
Cc1cccc(C)c1N1C(=O)[C@@H]2C(c3ccccc3Cl)=NO[C@@H]2C1=O	.	.	.	.	i	-2.1	0.66	1.1	-4.8
CC(C)Cn1c(N)c(C(=O)COC(=O)CN2C(=O)C3CC=CCC3C2=O)c(=O)n(C)c1=O (stereo unspecified)	-0.8	-2.1	-4.7	-1.7	i	-2.6	0.693	1.9	5.6

Going on with the list.
SMILES	ALR H2O2 inh	rRNA inh HTS	rRNA inh HTS OD600	rRNA inh HTS RFP	FGF22 binding	Beta2AR agonist	E coli growth	UCH37 inh	HNF4A DNA FP
CCC1S/C(=N/N=C/c2cccs2)NC1=O (stereo unspecified)	-1.8	.	.	.	.	0.8	.	.	3.4
Cc1cc(OCC(=O)NNC(=O)c2cccs2)ccc1Br	.	1.3	6.3	-1.0	i	-3.0	0.677	2.3	-6.2
COc1ccc(/C=C(\C#N)C(=O)NCC2CCCO2)cc1OC (stereo unspecified)	37.2	.	.	.	.	-1.6	0.72	5.5	0.5
O=C(c1ccc2c(c1)OCCO2)N1CCN(S(=O)(=O)c2c(F)cccc2F)CC1	2.4	-4.0	-1.0	13.6	i	-3.0	0.714	1.4	-1.7
CC1(C(=O)NS(=O)(=O)c2cccc(Cl)c2)CCN1C(=O)C1(c2ccccc2)CC1 (stereo unspecified)	.	11.6	33.0	4.2	i	.	.	.	2.1
CCOc1ccc(-c2[nH]ncc2-c2ccc(OC)c(OC)c2)c(O)c1	22.1	.	.	.	.	-5.3	0.761	1.0	6.9

Pulled by compound from the list above, 2 records:
SMILES	ALR H2O2 inh	rRNA inh HTS	rRNA inh HTS OD600	rRNA inh HTS RFP	FGF22 binding	Beta2AR agonist	E coli growth	UCH37 inh	HNF4A DNA FP
CC1(C(=O)NS(=O)(=O)c2cccc(Cl)c2)CCN1C(=O)C1(c2ccccc2)CC1 (stereo unspecified)	.	11.6	33.0	4.2	i	.	.	.	2.1
COc1ccc(/C=C(\C#N)C(=O)NCC2CCCO2)cc1OC (stereo unspecified)	37.2	.	.	.	.	-1.6	0.72	5.5	0.5

Compound activity: PubChem BioAssay, several laboratories
